RecA intein inh: inhibitors of M. tuberculosis RecA intein splicing; P9WHJ3; cell-free RecA intein splicing, fluorescence; inhibition, %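 (about 9 µM by stock and volumes)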; 290,000 compounds, 0.75% hits; AID 2221; in the data active = inhibition above about 30%;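 note: 0% = vehicle wells and 100% = reference inhibitor control wells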
Target sequence (P9WHJ3 whole entry, looked up): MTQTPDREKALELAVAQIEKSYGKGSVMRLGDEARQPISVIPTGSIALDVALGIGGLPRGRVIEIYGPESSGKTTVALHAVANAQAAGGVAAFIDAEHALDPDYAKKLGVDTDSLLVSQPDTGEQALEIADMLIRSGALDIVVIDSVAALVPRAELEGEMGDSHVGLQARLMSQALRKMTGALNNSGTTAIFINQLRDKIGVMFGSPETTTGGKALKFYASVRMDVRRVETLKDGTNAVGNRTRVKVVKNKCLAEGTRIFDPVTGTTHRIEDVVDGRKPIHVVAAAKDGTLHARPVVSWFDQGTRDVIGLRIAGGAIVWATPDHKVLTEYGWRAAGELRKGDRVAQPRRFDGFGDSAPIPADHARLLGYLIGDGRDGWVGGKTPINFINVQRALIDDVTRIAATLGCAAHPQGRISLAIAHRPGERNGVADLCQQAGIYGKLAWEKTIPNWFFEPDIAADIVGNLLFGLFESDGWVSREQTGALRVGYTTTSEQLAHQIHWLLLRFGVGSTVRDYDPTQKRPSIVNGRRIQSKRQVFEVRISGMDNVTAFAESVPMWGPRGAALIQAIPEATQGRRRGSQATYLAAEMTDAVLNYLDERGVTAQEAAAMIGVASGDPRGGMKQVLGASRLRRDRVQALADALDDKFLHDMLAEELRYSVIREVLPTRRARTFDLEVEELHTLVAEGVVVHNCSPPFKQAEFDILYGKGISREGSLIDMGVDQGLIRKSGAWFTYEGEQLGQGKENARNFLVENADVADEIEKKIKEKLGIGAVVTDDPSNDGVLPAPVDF
YopH PTP inh: YopH (Yersinia) phosphatase inhibition | 140,000 compounds, 0.16% hits | inhibition, %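 (about 10 µM by stock and volumes)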 | fluorescence Ex485/Em525;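 active = inhibition of 50% or more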;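 note: controls were vehicle for no effect and minimum signal wells for full effect; inactives centre near -20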
Arbovirus anti: blocks arbovirus infection | arbovirus infection cell-based antiviral screen | inhibition, % at 10 µM | 200,000 compounds, 0.37% hits;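 active = inhibition from about 30%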;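 note: bluetongue infection of BSR cells; cell survival read as ATP light after 72 h; 0% = infected wells without compound and 100% = uninfected wells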
Mtb bLac sens: beta-lactam sensitization of Mtb H37Rv; 330,000 compounds, 0.27% hits; M. tuberculosis H37Rv growth with meropenem, percent inhibition; hits of this screen are not shown here; AID 434955; inhibition, % at 25 µM;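 active = about 74% or more and at least 40 points above the plate without the antibiotic, then above 30% in a dose series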;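 note: growth measured after seven days incubation then overnight dye step; 0% = bacteria only wells and 100% = bacteria with antibiotic; twin plates without the antibiotic show which effects depend on it; some results filed as inactive read as strong as hits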
Mtb H37Rv: M. tuberculosis H37Rv growth inhibitors, H37Rv strain (AID 1626) | M. tuberculosis H37Rv growth inhibition; higher % means a stronger effect | inhibition, % at 10 µM; hits with a dose series show IC50 in µM | 220,000 compounds, 0.95% hits;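 active = confirmed in a dose series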;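 note: bacteria incubated seven days before Alamar blue readout; 0% = bacteria only wells and 100% = bacteria with antibiotic wells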
Arbovirus anti repeat: recorded beside Arbovirus anti, whose call it bears; inhibition, %; measured here: 10K subset replicate screen; many hits read low in the repeat;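 first of two repeat runs on a subset; 0% = infected and 100% = uninfected wells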
Active calls of the source: *; / = no result given. These rows are one share of the data; the hit share may differ from the screen's.

SMILES	RecA intein inh	YopH PTP inh	Arbovirus anti	Mtb bLac sens	Mtb H37Rv	others
CC(C)(C)n1nnnc1C(c1cccc(C(F)(F)F)c1)N1CCC(O)CC1 (stereo unspecified)	-3.1	/	3	-4	-5%
Cc1cc(N2CCN(C(=O)c3cccs3)CC2)c(F)cc1[N+](=O)[O-]	4.7	/	/	2	/
NS(=O)(=O)c1ccc(-c2ccc(C=NC3CCS(=O)(=O)C3)o2)cc1 (stereo unspecified)	-2.2	-30	-5	-5	-12%
Cc1cc(C)n2nc(SCc3ccccc3)nc2n1	1.4	/	/	2	-11%
O=C(Nc1ccccc1Cl)N1CCN(c2ccccn2)CC1	3.0	19	0	-22	2%	Arbovirus anti repeat=-4
O=C(CCC(=O)N1CCN(c2ccc(F)cc2)CC1)c1ccc(F)cc1	3.0	/	/	6	-5%
CCc1nc(N=Nc2c(O)[nH]c3ccccc23)c2c3c(sc2n1)CCC3	-0.6	-24	-9	-6	7%
COc1ccc(C(=O)Nc2ccc(CN3CCOCC3)cc2)cc1Br	0.9	/	/	-9	/
O=Cc1cn(-c2ccccc2)nc1-c1cccnc1	0.7	/	-5	-2	5%
Cc1cc(C)c(OCC(=O)OCC(=O)N2CCc3ccccc3C2)c(C)c1	3.3	/	/	64	/
CCOC(=O)C1=C(C)NC(=S)N(C(C)=O)C1c1ccc(Cl)cc1 (stereo unspecified)	6.9	-10	-14	12	-1%
O=C(CCC(NC(=O)OCc1ccccc1)C(=O)OCC(=O)N1CCCCC1)OCC(=O)N1CCCCC1 (stereo unspecified)	-0.5	-24	4	0	3%
COc1ccc(CN2CCCC(C(=O)c3ccc(Cl)cc3)C2)cc1Cn1cncn1 (stereo unspecified)	/	/	-31	-3	4%
CC1(C)C(=O)Nc2ccccc2N1C(=O)COC(=O)COc1ccc(C#N)cc1	3.1	/	/	2	/
O=C(C1CCN(S(=O)(=O)c2cc(Cl)ccc2Cl)CC1)N1CCCC1	-2.5	/	/	8	/
NC(=O)c1ccc(NC(=O)c2cccc3c2OCCCO3)cc1	/	/	/	0	4%
Cc1c(C(=O)NCc2cccnc2)sc2nc(-c3ccc(F)cc3)cn12	-5.3	-34	-9	2	16%	Arbovirus anti repeat=-15
COc1cccc(NC(=O)C2CCN(S(=O)(=O)c3ccc4c(c3)CC(C)N4C(C)=O)CC2)c1 (stereo unspecified)	1.1	/	/	-2	/
COc1ccc(C2C3=C(CCCC3=O)Nc3ccc4ncccc4c32)cc1OC (stereo unspecified)	4.4	/	4	4	2%
CCOC(=O)c1c(NC(=O)COC(=O)c2nc(Cl)ccc2Cl)sc(C(=O)N(C)C)c1C	-0.5	/	/	-9	/

Entries from the list above containing a Cl atom, in the order listed:
SMILES	RecA intein inh	YopH PTP inh	Arbovirus anti	Mtb bLac sens	Mtb H37Rv	others
O=C(Nc1ccccc1Cl)N1CCN(c2ccccn2)CC1	3.0	19	0	-22	2%	Arbovirus anti repeat=-4
CCOC(=O)C1=C(C)NC(=S)N(C(C)=O)C1c1ccc(Cl)cc1 (stereo unspecified)	6.9	-10	-14	12	-1%
COc1ccc(CN2CCCC(C(=O)c3ccc(Cl)cc3)C2)cc1Cn1cncn1 (stereo unspecified)	/	/	-31	-3	4%
O=C(C1CCN(S(=O)(=O)c2cc(Cl)ccc2Cl)CC1)N1CCCC1	-2.5	/	/	8	/
CCOC(=O)c1c(NC(=O)COC(=O)c2nc(Cl)ccc2Cl)sc(C(=O)N(C)C)c1C	-0.5	/	/	-9	/

Additional entries follow.
SMILES	RecA intein inh	YopH PTP inh	Arbovirus anti	Mtb bLac sens	Mtb H37Rv	others
Cc1ccc(-c2ccc3nnc(SCC(=O)NCC4CCCO4)n3n2)cc1 (stereo unspecified)	-10	/	-1	-11	6%
O=C(NCc1cccnc1)c1ccc(COc2cccc3ccccc23)o1	3.6	-22	12	17	-4%
O=C(NN1C(=O)c2ccccc2C1=O)C1C2CCCCC21 (stereo unspecified)	1.0	-20	-4	2	6%
COc1ccc(C2=NNC(c3cccnc3)=Nc3ccccc32)cc1	0.1	/	-4	-1	-10%
COc1cc2ccccc2cc1C(=O)NC(=S)Nc1cccc(C(=O)O)c1C	-1.5	/	/	6	3%
N#Cc1nc(-c2cccs2)oc1NCc1ccc(Cl)cc1	11	-41	-28	-6	12%
COc1ccc(OC)c(NC(=O)c2cc(-c3cc(C)ccc3O)n[nH]2)c1	3.4	/	/	4	/
Cc1ccc(-n2cc3c(-c4cccc(Br)c4)nnc(C)c3n2)cc1	18	10	-20	87	28%
O=C(c1cc2nc(-c3ccccc3)cc(C(F)(F)F)n2n1)N1CCN2CCCC2C1 (stereo unspecified)	3.1	/	/	-1	/
COCCNC(=O)CSc1nc2ccccc2c2nc(C)nn12	0.1	-30	9	-9	-4%
CC(=O)Nc1ccc(N/C=C/C(=O)c2ccc(Br)cc2)cc1	0.6	/	/	-3	/
Fc1ccc2c(c1)C(c1ccncc1)=NNC(c1ccc(Br)cc1)=N2	1.3	-16	-9	7	6%
O=C(O)CCCn1c(=O)c2cccn2c2ccc(F)cc21	-2.3	/	/	-7	/
CSCCC(NC(=O)c1ccccc1)C(=O)N/N=C(\C)c1ccccc1 (stereo unspecified)	-3.7	-10	-2	5	3%
CCOC(=O)/C(C#N)=C/Nc1ccccc1NS(=O)(=O)c1ccc(C)c(C)c1	-0.1	/	/	-7	-16%
CCOc1ccc2oc(C(=O)N(C)CC(=O)Nc3ccc(OCC)c(OCC)c3)c(C)c2c1	-3.1	/	/	-7	/
COc1ccc(CCNC(=O)c2cc3cccc(OC)c3oc2=O)cc1OC	-2.3	/	/	3	/
O=C(Nc1ccccc1)c1sc2cc(C(F)(F)F)cnc2c1-c1cccs1	-4.2	-23	11	-2	28%
COC(=O)C1Sc2[nH]c(=O)sc2C(c2ccc(Cl)cc2)C1C(=O)OC (stereo unspecified)	-0.2	-42	2	-8	-1%	Arbovirus anti repeat=6
Cc1cccc(CN2C[C@]34CC[C@@H](C[C@@H]3S2(=O)=O)O4)c1	1.2	/	/	0	3%
COc1ccc(O)c(/C=C(\C#N)C(=O)Nc2cccnc2)c1	-49	-12	-10	7	/
Oc1c(Br)cc(Cl)cc1C=Nc1ccccc1Br	1.9	-19	-3	9	5%
Cc1cccc(C)c1OCCCN1CCCC1	0.3	-35	-3	-11	-18%
O=c1c2c(nc3n1CCCCC3)sc1c(O)c(Br)ccc12	-3.0	-29	21	/	-4%
O=C(CNC(=O)c1ccc(F)cc1)NCc1ccc(Cl)cc1	-0.1	/	/	-8	/
CCOC(=O)N1CCN(C(=O)CN(c2ccccc2OC)S(=O)(=O)c2ccc(C)cc2)CC1	-0.4	-30	-2	0	0%
COc1cc(C2C(C#N)=C(N)OC3=C2C(=O)CC(C)(C)C3)ccc1OC(=O)N1CCOCC1 (stereo unspecified)	1.3	-23	6	4	-6%
Cc1ccc(NCc2nnc(SC(C)C(=O)N/N=C/c3ccc(C)o3)n2-c2ccccc2)cc1 (stereo unspecified)	3.2	-19	1	-9	0%
COc1ccc(CC(=O)NCc2ccccc2)cc1OC	-0.9	/	/	-1	/
Cc1nn(Cc2ccc([N+](=O)[O-])cc2)c(=O)n1-c1cccc(F)c1	0.1	-30	3	-4	-4%

Structures above with an aryl thioether with sulfur outside any ring:
SMILES	RecA intein inh	YopH PTP inh	Arbovirus anti	Mtb bLac sens	Mtb H37Rv	others
Cc1cc(C)n2nc(SCc3ccccc3)nc2n1	1.4	/	/	2	-11%
Cc1ccc(-c2ccc3nnc(SCC(=O)NCC4CCCO4)n3n2)cc1 (stereo unspecified)	-10	/	-1	-11	6%
COCCNC(=O)CSc1nc2ccccc2c2nc(C)nn12	0.1	-30	9	-9	-4%
Cc1ccc(NCc2nnc(SC(C)C(=O)N/N=C/c3ccc(C)o3)n2-c2ccccc2)cc1 (stereo unspecified)	3.2	-19	1	-9	0%

Later entries:
SMILES	RecA intein inh	YopH PTP inh	Arbovirus anti	Mtb bLac sens	Mtb H37Rv	others
C=COCCn1c(C)c(C(C)=O)c2cc(O)ccc21	-1.1	/	-1	-5	-4%
COc1ccc(Cl)cc1NC(=O)Nc1ccccc1C(N)=O	0.2	/	22	-6	9%
COc1ccc(-c2nnc(SCC(=O)N/N=C/c3ccccc3C(=O)O)n2-c2ccccc2)cc1	-0.4	/	19	-2	-6%
CC(=O)Nc1ccc(OCC(O)CN2CCCCC2C)cc1 (stereo unspecified)	-4.4	-11	-5	5	4%
O=C(c1ccc(Cl)c(S(=O)(=O)N2CCCCCC2)c1)N1CCN(c2ccccc2O)CC1	-2.4	/	6	-1	5%
O=c1[nH]c(=O)c2nnc(N/N=C/c3ccccc3F)nc2[nH]1	-4.1	/	/	3	-5%
CC1CCN(CCC(=O)Nc2ccc3c(c2)CCC3)CC1	/	12	-3	1	-5%
O=C(CCCN1C(=O)c2cccnc2C1=O)Nc1ccc(Br)cc1	-1.2	/	12	-8	-2%
CSCCC(NC(=O)c1ccccc1Cl)C(=O)OCC(=O)N1CCCC1=O (stereo unspecified)	-0.6	/	/	-9	/
COC(=O)C1(Cc2ccc(O)c(CC3OC3(C)C)c2)OC(=O)C(O)=C1c1ccc(O)cc1 (stereo unspecified)	-5.0	/	/	1	1%
CC(=O)N=Nc1[nH]c(N)c2ccccc12	-0.2	/	9	7	-4%
CCOc1cc(/C=C/C(=O)c2ccc(C)cc2)ccc1OCC(=O)N(C)C	2.2	-35	-35	69	55%
COC(=O)C1=C(C)NC(=O)C1(Nc1ccc(Cl)cn1)C(F)(F)F (stereo unspecified)	0.9	-15	8	2	1%
Cc1ccc(-n2cc(CNCCN3CCOC3=O)c(-c3ccc(F)cc3)n2)cc1	1.2	/	-11	-1	5%
COC(=O)C1=C(C)NC(C)=C(C(=O)OC)C1C(=O)OCC(=O)c1ccc(F)cc1	1.1	/	0	-2	2%
O=C(O)CN1C(=O)/C(=C\C(Br)=C\c2ccccc2)SC1=S	11	/	/	0	/
O=C(NCc1cccs1)C12CC3CC(CC(C3)C1)C2	0.2	/	22	-5	-10%
Nn1c(SCc2ccc(F)cc2)nnc1-c1ccncc1	0.9	/	/	7	-1%
CCCC(c1nnnn1CC1CCCO1)N1CCN(c2nc3ccccc3s2)CC1 (stereo unspecified)	0.6	5	0	-2	6%
CCN1CNC(=S)N(c2ccccc2C)C1	-1.9	/	/	1	-9%
O=C(NCCc1c[nH]c2ccccc12)C(F)(F)F	-6.0	-121	-1	-5	1%
CC(C)c1ccc(S(=O)(=O)N2CCC(C(=O)NCC3(N(C)C)CCCCC3)CC2)cc1	-1.4	/	/	1	/
O=C(c1cnn2c(C(F)F)cc(C3CC3)nc12)N1CCOCC1	-1.6	-2	-3	-5	2%
COc1nc(Nc2nc3ccccc3c(=O)[nH]2)nc2ccc(C)cc12	0.2	/	/	74	-2%
COc1cc(C(C)=O)ccc1OC(=O)C(C)N1C(=O)c2ccccc2C1=O (stereo unspecified)	7.1	-19	16	5	-4%	Arbovirus anti repeat=0
CCOc1ccc(Nc2nc(N3CCCCC3)nc(N3CCCCC3)n2)cc1	-0.8	2	3	2	1%
CC1CC(=O)N(CC(=O)N2CCCC2)c2ccccc2S1 (stereo unspecified)	-7.9	-6	14	-1	-7%
CCN(CC)Cc1c(O)ccc2c([N+](=O)[O-])c(C)n(-c3ccc(OC)cc3)c12	-0.8	-6	16	-8	0%
Cc1ccc(S(=O)(=O)N(C)CC(=O)N2CCCc3ccccc32)cc1	-0.2	10	9	-4	-8%
CCSC1=N/C(=C\c2ccccc2)C(=O)N1	1.2	-6	-12	-2	3%
CCOC(=O)c1ccc(NC(=O)CSc2nnnn2C2CCCCC2)cc1	5.3	-7	-3	14	50%
CN1CCN(C(=O)C2CCN(S(=O)(=O)c3ccc(F)cc3)CC2)CC1	-0.7	/	/	0	/
COCCNC(=O)NC(=O)COC(=O)C1(c2ccc(Cl)cc2)CC1	2.7	/	11	4	1%
NC(=S)N=Nc1c(O)n(CCCl)c2ccccc12	0.4	/	-1	2	2%
O=C(N/N=C/c1ccsc1)c1cc2ccccc2o1	-5.2	/	/	2	/
O=C(N/N=C/c1ccccc1Cl)C1CC1	1.7	/	/	3	/
Cc1ccc(-c2cnc(-c3ccccc3C(=O)O)o2)cc1	2.4	/	/	-10	/
Cc1cc(C)cc(N(C(=O)c2csnn2)C(C(=O)NC2CCCCC2)c2ccncc2)c1 (stereo unspecified)	-0.2	/	/	6	/
C=CCn1cnc2c(sc3nc(C)cc(C)c32)c1=O	0.9	/	/	-7	4%
COc1cccc(C(=O)Nc2ccccc2)c1	-0.6	-15	-11	-10	-3%
CCNc1nc(NCC)nc(NS(=O)(=O)c2ccc(N)cc2)n1	-0.4	/	/	-4	/
COCCn1c(SCc2nc3scc(-c4ccc(Cl)cc4)c3c(=O)[nH]2)nnc1-c1cccc(C)c1	1.4	-58	32*	-1	12%
Cc1nc(N2CCN(S(=O)(=O)c3ccc(F)cc3)CC2)c2c(-c3cccs3)csc2n1	7.4	/	10	9	-4%
O=C(O)CCc1nc2cc(C(F)(F)F)ccc2n(Cc2ccccc2)c1=O	-0.3	/	/	-5	/
Cc1cccc(CS(=O)(=O)c2nnc([C@H](Cc3ccccc3)NC(=O)OC(C)(C)C)o2)c1	36*	-10	-43	13	1%

Bioassay records from PubChem.
